Compound activity (PubChem)
WNV NS2B-NS3 inh: inhibitors of West Nile virus NS2B-NS3 protease; P06935; WNV NS2B-NS3 protease, fluorogenic substrate Ex360/Em465; hits give low values; z-score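 (tested at a level between 10 and 100 µM)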; 65,000 tested, 0.18% active;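 active means z-score at -3 or under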;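 further: score is relative to mean and spread of the compound wells of a plate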
Target sequence (P06935 1371-1501 limits assumed): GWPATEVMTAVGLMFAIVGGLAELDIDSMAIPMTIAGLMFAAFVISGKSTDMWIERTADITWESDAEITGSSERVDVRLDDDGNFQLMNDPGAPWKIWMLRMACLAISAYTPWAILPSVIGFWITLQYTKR
Target sequence (P06935 1502-1679 limits assumed): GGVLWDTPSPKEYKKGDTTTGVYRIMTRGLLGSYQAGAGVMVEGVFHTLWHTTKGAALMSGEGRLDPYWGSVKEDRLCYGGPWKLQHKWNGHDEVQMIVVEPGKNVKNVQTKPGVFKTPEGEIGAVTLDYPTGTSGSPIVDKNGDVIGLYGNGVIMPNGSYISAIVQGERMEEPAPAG
MT1-MMP promoter: inhibitors of MT1-MMP promoter transcription, cell-based, luciferase reporter, luminescence (AID 618) | MT1-MMP promoter luciferase reporter cells, luminescence | calls from a first round at 10 µM; hits with a dose series show EC50 in µM | 87,000 tested, 0.62% active;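 active means over half of the reporter light lost at 10 µM or EC50 under 50 µM; inactive means the rest and hits that failed the dose series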;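 further: actives suppress MT1-MMP promoter-driven transcription so potencies describe inhibitors; HT1080 fibrosarcoma cells; overnight exposure; toxic or luciferase-blocking compounds were not removed from the actives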
Hsc70: small molecules displacing fluorescent ligand from Hsc70 – biochemical, fluorescence polarization, primary screen (AID 568) | Hsc70 fluorescence polarization, probe displacement; higher % means a stronger effect; strong numbers were not always called active | displacement, % at 20 µM, or IC50 in µM where a hit was titrated | 83,000 tested, under 10 active;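 active means displacement above 50% without optical interference and an IC50 on retest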;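 further: ATPase domain with a fluorescein-tagged ATP probe; 0% = vehicle and 100% = excess ADP; read after one hour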
* marks the source's active call; other numbers are inactive results; i = inactive; x = no result given; & = joins results of further samples. Some of the compounds tested; the hit share may differ from the screen's.

SMILES	WNV NS2B-NS3 inh	MT1-MMP promoter	Hsc70
CCOc1ccccc1NC(=O)C1CCCN(S(=O)(=O)c2ccc(OC)c(C)c2)C1 (stereo unspecified)	0.09	i	-0.3%
NS(=O)(=O)c1ccc(Nc2nc(-c3ccc(O)cc3)cs2)cc1	0.66	i	-0.9%
CCOc1ccc(C)cc1S(=O)(=O)N1CCCCC1	0.1	i	4.8%
CCOC(=O)C1C(=O)NC(SCC(=O)Nc2nccs2)=C(C#N)C1c1ccccc1OCC (stereo unspecified)	-0.7	i	2.7%
Cc1cccc(-c2nsc(SCC(=O)Nc3cc(C)on3)n2)c1	-0.99	i	0.1%
CCCCCn1c(Br)nc2c1c(=O)n(CC(N)=O)c(=O)n2C	-0.39	i	-9.5%
CCOc1ccccc1C1N(c2ccc(OC)cc2)C(=O)C2CCCN21 (stereo unspecified)	-0.72	i	0.9%
CCCCc1c(O)nc(SCC(=O)NCCc2ccc(OC)c(OC)c2)[nH]c1=O	0.76	i	-7.9%
Cc1ccc2cc3cc(C(=O)NCCC(C)C)oc3nc2c1	0.22	i	2.8%
Cn1c(SCc2nnc(-c3ccc(F)cc3)o2)nnc1C1COc2ccccc2O1 (stereo unspecified)	0.02	i	1.7%
CN1C2=NCCN2C(=O)c2ccccc21	x	i	-1.8%
COc1cc(-c2nnc(SCc3cc(=O)oc4cc(C)ccc34)o2)cc(OC)c1OC	0.64	i	-0.3%
COc1ccc(-c2nc(N3CCOCC3)nc3n[nH]c(N)c23)cc1	-0.92	i	3.7%
CCOC(=O)C1CCN(C(=O)Nc2ccc3snnc3c2)CC1	-0.24	i	-3.6%
CC(C)c1nnc(NC(=O)c2c(O)c3cccc4c3n(c2=O)CC4)s1	0.52	i	5.4%
CCOC(=O)N1CCN(c2cc(NCCC(=O)O)c3c4c(onc24)-c2ccccc2C3=O)CC1	-0.66	i	-155.1%
Cc1ccccc1OCCCN1C(=O)C(=O)c2cccc(C)c21	0.00447	i	-6.6%
CCOC(=O)c1c(NC(=O)c2cccs2)sc2c1CCC2	-0.46	i	-11.4%
O=C(Nc1ccc(Cl)c(Cl)c1)N1CCSC1c1ccco1 (stereo unspecified)	1.33	i	-9.4%
Cc1nc2cc(NCc3nc4ccccc4n3Cc3ccccc3)ccc2n1C	-0.72	i	-5.9%
O=C(NCc1ccc(F)cc1)C1CCCN1C(=O)NCc1ccccc1 (stereo unspecified)	-0.26	i	0.5%
COc1ccccc1CNC(=O)c1ccccc1NS(C)(=O)=O	x	i	-2.4%
COc1cc(=O)[nH]c(SCc2c(F)c(F)c(F)c(F)c2F)n1	1.18	i	8.5%
CCn1c(CNc2cccc(Cl)c2)nnc1SCc1ccccc1	-0.09	i	-3.8%
Cc1ccc(S(=O)(=O)N2CCCC2C(=O)Oc2ccccc2)cc1 (stereo unspecified)	0.94	i	-0.2%

Carrying on:
SMILES	WNV NS2B-NS3 inh	MT1-MMP promoter	Hsc70
CCOc1cc(NC(=O)c2ccco2)c(OCC)cc1NC(=O)COc1ccccc1	0.18	i	1.2%
O=C(O)CCC(=O)c1cccc2ccccc12	-0.75	i	0.8%
Cc1ccc(N(CC(=O)NC2CCC(C)CC2)S(=O)(=O)c2cccnc2)cc1 (stereo unspecified)	2.14	i	3.4%
O=C(NCc1ccccn1)C1CCCN(S(=O)(=O)c2ccc(Br)cc2)C1 (stereo unspecified)	-1.62	i	3.7%
CNC(=O)CCn1nc(-c2ccc(Cl)cc2)c2ccccc2c1=O	0.04	i	-0.3%
Cc1cc(C)c(S(=O)(=O)NCC2CCC(C(=O)NCCCN3CCOCC3)CC2)c(C)c1 (stereo unspecified)	2.36	i	3.5%
Clc1ccc(-c2nnc(-c3ccc(Br)o3)o2)c(Cl)c1	-0.4	i	3.3%
O=C(Cc1ccccc1)Nc1c(C(=O)N2CCOCC2)cnn1-c1ccccc1	0.48	i	4.6%
Cc1ccc(-c2nc(CSCC(=O)N3CCCC3)c(C)o2)cc1	0.69	i	3.7%
Cc1sc(NC(=O)c2ccco2)c(CN2CCCCC2)c1C	-0.07	i	6.0%
Cc1cc(S(=O)(=O)N2CCCC2)c(C)s1	-0.41	i	-3.0%
Cc1nc2cc(NC(=O)N3CC4(C)CC3CC(C)(C)C4)ccc2n1C (stereo unspecified)	0.64	i	9.0%
CCCCn1c(CNC(C)=O)nc2ccccc21	0.79	i	-1.0%
O=C(N1CCCCC1)N1CCN(C(=O)N(c2ccccc2)c2ccccc2)CC1	0.23	i	0.8%
COc1cccc(OCCCN2CCN(S(=O)(=O)c3ccc(NC(C)=O)cc3)CC2)c1	x	i	3.8%
O=C(c1ccco1)N1CCN(Cc2ccc(Cl)cc2)CC1	1.14	i	-5.6%
Cc1cc(NC(=O)CSc2nnc(COc3ccccc3)o2)no1	-1.01	i	0.1%
O=C(COc1ccc(Br)cc1)OCc1nnc(-c2ccccc2)o1	1.4	i	3.8%
CCCc1cc(=O)oc2c(C)c3occ(C)c3cc12	-0.19	i	-3.4%
Cc1n[nH]c(C)c1S(=O)(=O)N1CCCC(C(=O)NCC2COc3ccccc3O2)C1 (stereo unspecified)	-0.42	i	-3.3%
COc1ccc(C(=O)Nc2c(N)nc(SCC(=O)N3CCCCCC3)[nH]c2=O)cc1OC	-1.12	i	1.5%
Cc1noc(C)c1COC(=O)CCc1nc2ccccc2s1	-0.64	i	1.2%
Cc1nc2sc(C(c3ccco3)N3CCN(c4cccc(Cl)c4)CC3)c(O)n2n1 (stereo unspecified)	-0.28	i	-9.9%
CN1CCN(c2ccc(NC(=O)c3ccccc3Br)cc2)CC1	-0.14	i	0.9%
CCOC(=O)Cc1cc(=O)n2[nH]c(C)c(-c3ccc(Cl)cc3)c2n1	x	i	0.4%

Pulled one by one from the entries so far, 4 records:
SMILES	WNV NS2B-NS3 inh	MT1-MMP promoter	Hsc70
Cc1n[nH]c(C)c1S(=O)(=O)N1CCCC(C(=O)NCC2COc3ccccc3O2)C1 (stereo unspecified)	-0.42	i	-3.3%
COc1ccccc1CNC(=O)c1ccccc1NS(C)(=O)=O	x	i	-2.4%
Cc1ccc(-c2nc(CSCC(=O)N3CCCC3)c(C)o2)cc1	0.69	i	3.7%
COc1ccc(-c2nc(N3CCOCC3)nc3n[nH]c(N)c23)cc1	-0.92	i	3.7%

Later entries
SMILES	WNV NS2B-NS3 inh	MT1-MMP promoter	Hsc70
O=C(c1ccc2c(c1)OCO2)N1CCNc2ccccc2C1	-1.14	i	-0.2%
Cn1c(SCC#N)nnc1-c1cnccn1	x	i	-3.6%
COc1ccc(C2CC(C(F)(F)F)n3nc(C(=O)NCc4c(C)nn(C)c4C)c(Cl)c3N2)cc1 (stereo unspecified)	-0.23	i	0.4%
CC1CC(C)CN(C(=O)Cn2c(-c3nonc3N)nc3ccccc32)C1 (stereo unspecified)	x	i	-0.4%
CCOC(=O)c1c(CN2CCCCC2)oc2ccc(OC)cc12	-0.53	i	-3.5%&2.4%
Cc1cc(C)nc(N(C#N)S(=O)(=O)c2ccccc2)n1	-0.64	i	-5.2%
COCCCn1c(-c2ccc(OC)cc2)nc2nc3ccccc3nc21	-0.02	i	-3.9%
CCn1ncc(C(=O)Nc2ccc(S(=O)(=O)N3CCCC3)cc2)c1C	1.62	i	-1.6%
COc1cc2c(cc1OC)CN(C(C)C(=O)N1CCc3ccccc31)CC2 (stereo unspecified)	x	i	4.5%
COc1ccc(NC(=O)c2nc3nccc(C)n3n2)cn1	x	i	27.6%
COc1ccc2c(c1)c1nc3ccccc3nc1n2CC(=O)OC(C)C	x	i	45.8%
CCCC(=O)N(Cc1cc2ccccc2[nH]c1=O)c1ccccc1OC	-0.59	i	0.1%
COC(=O)c1cc(C(=O)OC)n(Cc2ccc(Br)cc2)n1	x	i	-2.1%
COc1ccc(C)cc1NC(=O)CN(c1ccccc1F)S(C)(=O)=O	-0.62	i	3.8%
COCCn1cnc2c1c(=O)n(CC(=O)c1ccc3c(c1)OCCO3)c(=O)n2Cc1ccccc1	0.73	i	5.7%
COC(=O)c1ccc(N2C(=O)CC(N(C)Cc3ccccc3)C2=O)cc1 (stereo unspecified)	1.72	i	-0.3%
COc1ccc(C2=CSC3=NCCN23)cc1F	0.2	i	5.7%
COc1cc(C2C(C(=O)c3ccco3)=C(O)C(=O)N2c2cc(C)on2)cc(Br)c1O (stereo unspecified)	0.21	i	-6.4%
O=C(CC1SC(=Nc2ccccc2)N(CCCO)C1=O)Nc1ccc(Cl)cc1 (stereo unspecified)	-1.27	i	-1.6%
O=S(=O)(/N=C(/Nc1cc(N2CCOCC2)ncn1)c1ccc(F)cc1)c1ccccc1	1.36	i	-2.3%
Cc1cc(NC(=O)CN2C(=O)NC(C)(c3ccccc3)C2=O)no1 (stereo unspecified)	x	i	-0.4%
CCOC(=O)c1c(NC(=O)c2nn(CC)cc2Br)c(C#N)nn1-c1ccccc1	-0.22	i	-3.0%
Cn1c(SCc2ccccc2Cl)nnc1-c1cnccn1	-0.92	i	-6.0%
CCOCCn1c(CCCO)nc2ccccc21	0.73	i	-0.5%
Oc1ccccc1-c1nc(NCC2CCCO2)c2ccccc2n1 (stereo unspecified)	0.62	i	2.0%

Additional records.
SMILES	WNV NS2B-NS3 inh	MT1-MMP promoter	Hsc70
COc1cc(N/C(=N/S(=O)(=O)c2ccccc2)c2ccccc2)ncn1	-0.06	i	4.8%
COC(=O)c1ccc(NC(=O)C2CC(=O)N(c3cc(C)ccc3C)C2)cc1 (stereo unspecified)	0.31	i	0.1%
COc1cc(NC(=O)Cn2nnc(-c3ccccc3N)n2)cc(OC)c1	1.31	i	0.1%
O=C(CCCNS(=O)(=O)c1cccc2nsnc12)NCc1ccccc1	1.44	i	6.7%
O=C(COC(=O)c1ccncc1)Nc1cccc(Cl)c1	x	i	-19.0%
CCOc1cc2[nH]c(=S)n(CCCOC)c(=O)c2cc1OCC	1.24	i	0.8%
O=C(Cn1cnc2sc(-c3ccccc3)cc2c1=O)NCc1ccccc1	x	i	-1.3%
COc1ccc(C(=O)N2CCN(C(=O)c3cc(OC)c(OC)c(OC)c3)CC2)cc1	-0.4	i	3.8%
COc1ccc(C(=O)Nn2cnc3scc(-c4cccs4)c3c2=O)c(O)c1	0.6	i	1.5%
O=C(CN(c1ccc(F)cc1)S(=O)(=O)c1ccc2c(c1)OCCO2)Nc1ccccc1	x	i	3.1%
O=C(Oc1cccc2cccnc12)c1ccc2c(c1)OCCO2	0.85	i	0.1%
COc1ccc(N2C(=O)CCC2(C#N)c2ccc(Br)cc2)cc1 (stereo unspecified)	x	i	5.3%
O=C(CN1CCN(Cc2ccc(F)cc2)C1=O)NCc1cccs1	-0.57	i	6.9%
C=CCn1cc(C(=O)NCCCOC)c(=O)c2cc(S(=O)(=O)N3CCC(C)CC3)ccc21	-0.76	i	-1.0%
O=C1CC(c2cccc(Cl)c2)Cc2nc(N3CCOCC3)ncc21 (stereo unspecified)	-0.19	i	2.9%
O=c1c([N+](=O)[O-])c(NC2CCCCC2)c2ccccc2n1-c1ccccc1	x	i	1.1%
COc1ccc(S(=O)(=O)N2CCN(C(=O)c3cnc(C)cn3)CC2)cc1	x	i	0.7%
CCN(CC)S(=O)(=O)c1cccc(C(=O)N[C@H](C(=O)OCC(=O)NC(=O)NC)C(C)C)c1	x	i	-0.2%
Cc1ccc(Sc2ncnc3onc(C)c23)cc1	x	i	-0.4%
COc1ccc(-c2nc3ccccc3c(=O)n2CCN2CCOCC2)cc1	0.79	i	-5.1%
Cc1cc(C(F)(F)F)nn1CC(=O)NCC1CCCO1 (stereo unspecified)	0.19	i	6.6%
CCOc1ccc(-c2cnc3n2CCC3)cc1	x	i	-0.3%
Cc1ccc(Nc2nnns2)cc1C	-0.42	i	3.0%
COc1cc(NS(=O)(=O)c2ccc(NC(=O)NC3CCCCC3)cc2)nc(OC)n1	0.74	i	0.2%
Cc1ccccc1-c1nc(CN2CCC(C(=O)NCc3cccnc3)CC2)c(C)o1	-0.19	i	-1.6%

Two neighbouring entries from above, quoted:
SMILES	WNV NS2B-NS3 inh	MT1-MMP promoter	Hsc70
CCOc1ccccc1NC(=O)C1CCCN(S(=O)(=O)c2ccc(OC)c(C)c2)C1 (stereo unspecified)	0.09	i	-0.3%
NS(=O)(=O)c1ccc(Nc2nc(-c3ccc(O)cc3)cs2)cc1	0.66	i	-0.9%

Further entries follow.
SMILES	WNV NS2B-NS3 inh	MT1-MMP promoter	Hsc70
O=C(NCc1cccs1)Nc1cccc(Cl)c1	x	i	3.4%
CC1(C)OC(=O)C(=CNC(Cc2c[nH]c3ccccc23)C(=O)O)C(=O)O1 (stereo unspecified)	-0.93	i	2.4%
COc1ccc(Cl)cc1N(CC(=O)N1CCC(C)CC1)S(C)(=O)=O	-0.38	i	-0.4%
CCN(CC)CCn1c(NCc2ccco2)nc2ccccc21	x	i	7.2%
Cc1c(C(=O)NCc2ccccc2)oc2c1C(=O)CCC2	0.73	i	-0.2%
CCn1c(=O)cc(SCC(=O)Nc2ccc(Cl)cc2)c2ccccc21	x	i	-0.9%
O=C(NC1CCCCC1)N1CCC(c2nc3ccc(Cl)cc3[nH]2)CC1	-1.08	i	-3.7%
CN(CC(=O)OCC(=O)Nc1ccccc1)S(=O)(=O)c1ccc(Cl)cc1	x	i	-0.4%

Record cards, as listed above. Order of screens: WNV NS2B-NS3 inh, MT1-MMP promoter, Hsc70
Entry for CCN(CC)CCn1c(NCc2ccco2)nc2ccccc21 = x, i, 7.2%
Entry for CC1(C)OC(=O)C(=CNC(Cc2c[nH]c3ccccc23)C(=O)O)C(=O)O1 (stereo unspecified) = -0.93, i, 2.4%
Entry for O=C(NCc1cccs1)Nc1cccc(Cl)c1 = x, i, 3.4%
Entry for CCn1c(=O)cc(SCC(=O)Nc2ccc(Cl)cc2)c2ccccc21 = x, i, -0.9%
